T cruzi inh = T. cruzi replication inhibition. T. cruzi beta-gal in NIH3T3, luminescence, 90 h. inhibition, % (no concentration beside the values). hit rate 1.4% among 300,000. AID 1885;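 active means mean inhibition across valid replicates above about 55%, limit read from the data; inconclusive means mean below that limit but half or more replicates reach it; inactive means mean below it, under half of replicates reach it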;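 further: signal also drops with host cell toxicity which is not excluded here; 0% = plate median of DMSO wells and 100% = zero luminescence signal; higher percent means less beta-gal luminescence so fewer parasites; stock transfer was 50 nL into about 50 µL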
AF4-AF9 inh = blocks AF4 peptide binding to human AF9; P42568; AID 651704; inhibition, % at 10 µM; hit rate 0.47% among 350,000; AlphaScreen, biotin-AF4 peptide binding to FLAG-AF9;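 active means every replicate reaching a set inhibition limit, whatever the replicate mean, cut at about 25% in these data; inconclusive means mean inhibition reaches that limit but some replicates miss it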;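 further: 0% = plate neutral control median and 100% = total signal loss; the record names both 10 and 1 µM as test concentration; the first replicate is given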
Target sequence (P42568 whole entry, looked up): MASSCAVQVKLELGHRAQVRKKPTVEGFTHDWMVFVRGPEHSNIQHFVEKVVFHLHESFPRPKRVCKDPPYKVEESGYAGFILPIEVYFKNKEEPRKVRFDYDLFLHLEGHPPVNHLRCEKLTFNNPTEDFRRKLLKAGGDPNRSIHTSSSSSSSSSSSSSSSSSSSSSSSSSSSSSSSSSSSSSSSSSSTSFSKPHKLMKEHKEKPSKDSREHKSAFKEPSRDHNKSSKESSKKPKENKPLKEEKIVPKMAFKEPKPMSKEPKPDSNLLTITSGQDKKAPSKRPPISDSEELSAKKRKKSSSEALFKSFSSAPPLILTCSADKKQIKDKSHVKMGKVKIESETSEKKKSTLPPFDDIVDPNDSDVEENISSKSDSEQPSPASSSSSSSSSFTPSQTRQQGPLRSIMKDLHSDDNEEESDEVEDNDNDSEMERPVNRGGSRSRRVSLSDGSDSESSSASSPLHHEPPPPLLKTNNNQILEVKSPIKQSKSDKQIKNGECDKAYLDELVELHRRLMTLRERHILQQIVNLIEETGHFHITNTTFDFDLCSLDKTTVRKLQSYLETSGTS
RanGTP-Impb inh = inhibitors of RanGTP-importin-beta interaction, primary screen, biochemical, FRET, CFP-Ran, YFP-importin-beta, homogeneous; inhibition, % (test concentration not listed); hit rate 1.1% among 300,000; AID 2216; cell-free CFP-Ran/YFP-importin-beta FRET ratio;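 active means most replicates above 15%; inconclusive means exactly half above 15%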;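 further: 0% = DMSO wells and 100% = Ran loaded with GDP instead of GTP; wells of about 40 µL received 100 nL stock; the first replicate is given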
Beta cell apopt = blocks beta cell apoptosis. AID 435005. protection from apoptosis, % (concentration not given with the values). hit rate 0.8% among 300,000. INS-1E cytokine-induced death, ATP luminescence, 48 h; percent of positive-control rescue, neutral wells zero;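 active means all replicates at 75% or more, or half of them and the mean; inconclusive means half reach 75% but not the mean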;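 further: 0% = cytokine-treated negative control wells and 100% = positive control rescue; higher means more ATP so stronger rescue from cytokine killing; wells of about 40 µL received 100 nL stock; the first replicate is given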
Calb FLC = C. albicans growth modulation with fluconazole | AID 1979 | C. albicans CaCi-2 (fluconazole-resistant clinical isolate) + fluconazole, Alamar Blue growth, 48 h | growth inhibition, % (test concentration not listed) | hit rate 0.57% among 300,000;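 active means most replicates above 75%; inconclusive means exactly half above 75%; inactive means most below 75%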;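 further: all wells also contain fluconazole at 8 µg/ml as a sub-toxic cotreatment; 0% = median of DMSO wells and 100% = median of geldanamycin control wells; wells of about 8 µL received 7.5 nL stock; the first replicate is given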
FGF22 binding = binders of recombinant human FGF22 by thermal shift; calls only at 9.99 µM; SYPRO orange fluorescence; percent of sucrose octasulfate shift, DMSO zero; AID 651658; Q9HCT0; hit rate 1.5% among 340,000;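 active means melting point raised past a set limit in the mean and every replicate; inconclusive means no clear call; three in four hits are not shown here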
Target sequence (Q9HCT0 whole entry, looked up): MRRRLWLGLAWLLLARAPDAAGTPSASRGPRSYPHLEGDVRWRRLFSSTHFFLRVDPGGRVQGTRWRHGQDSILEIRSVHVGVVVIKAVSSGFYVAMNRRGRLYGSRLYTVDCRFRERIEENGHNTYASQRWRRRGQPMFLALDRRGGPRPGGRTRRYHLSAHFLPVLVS
ALR inh = human ALR oxidase inhibition via reduced H2O2 | purified ALR, DTT oxidation, H2O2 HRP-luminol luminescence | inhibition, % (test concentration not listed) | hit rate 3.8% among 290,000 | AID 485317;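 active means mean and each replicate at 75% or more; inconclusive means only one of the two met; inactive means neither met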;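 further: stock transfer was 7.5 nL into about 7.5 µL; 0% = neutral wells and 100% = wells with inactivated enzyme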
Target sequence (P55789 whole entry, looked up): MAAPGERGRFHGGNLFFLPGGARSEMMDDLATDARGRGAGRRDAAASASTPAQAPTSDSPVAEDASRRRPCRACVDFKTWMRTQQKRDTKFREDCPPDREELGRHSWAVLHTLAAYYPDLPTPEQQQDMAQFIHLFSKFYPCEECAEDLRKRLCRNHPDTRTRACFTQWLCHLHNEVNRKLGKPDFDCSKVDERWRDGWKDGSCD
Ecoli rRNA inh = selective bacterial rRNA inhibition in E. coli. hit rate 1.6% among 350,000. GFP signal change (wild-type ribosome), % (test concentration not listed). AID 720706. E. coli WT GFP vs humanized-ribosome RFP mutants, fluorescence, 24 h; active compounds read low; DMSO median 0, no signal -100;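 active means significant combined selectivity score with lowered wild-type GFP, culture density cut under 30%, mutant RFP and density less affected; inactive means any of these conditions unmet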; further: one replicate is shown; some compounds called inactive have numbers as strong as hits
Ecoli rRNA inh OD600 = second read-out of Ecoli rRNA inh, no call of its own (marks repeat the call); OD600 change, %; measured here: OD600 growth;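 optical density of the mix in the first replicate; 0 = DMSO median and -100 = no signal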
Ecoli rRNA inh RFP = recorded beside Ecoli rRNA inh, whose call it bears; RFP signal change, %; measured here: RFP humanized mutant strains;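 first replicate; 0 = DMSO median and -100 = no signal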
Active calls of the source: *; i = inactive; u = inconclusive; x = no result given. The list is partial; count on the stated rates, not on these rows.

SMILES	T cruzi inh	AF4-AF9 inh	RanGTP-Impb inh	Beta cell apopt	Calb FLC	FGF22 binding	ALR inh	Ecoli rRNA inh	Ecoli rRNA inh OD600	Ecoli rRNA inh RFP
Oc1ccc(Cl)cc1CNCC1CCCCC1	x	1.4	x	1	x	i	x	-1	-4	-13
CCCC(=O)Nc1nn(CCC)c2nc3ccccc3cc12	-12	x	7.6	2	-4	x	26	x	x	x
Cc1cc(OCc2cc(C(=O)NC(C)c3c(C)nn(C)c3C)no2)cc(C)c1Cl (stereo not drawn)	18	2.1	-1.2	x	3	i	0	-4	-3	2.2
Cc1nc(SCC(=O)Nc2ccc(F)cc2)c2oc3ccccc3c2n1	0	x	2.4	-6	5	x	x	x	x	x
Cc1ccc(NC(=O)Cn2cnc3cc([N+](=O)[O-])ccc3c2=O)c(Cl)c1	46	-5.3	5.4	2	0	i	x	3	10	-6.6
CC1CCN(C(=O)c2cc3c(ccc4ccccc43)o2)CC1	13	-7.3	-2.6	-10	14	i	-19	-25	-59	1.3
CN(C)C(=O)COC(=O)/C=C/c1cn(-c2ccccc2)nc1-c1cccs1	6	4.2	-4.1	-1	6	i	-6	-32*	-1.4*	-4.2*
CC(=O)c1cccc(NC(=O)CSc2ccc(-c3ccccn3)nn2)c1	-10	-1.4	0.6	3	2	x	-28	-30	-48	-9.6
Cn1c(=O)c2c(nc(NCc3ccco3)n2CCc2ccccc2)n(C)c1=O	-18	x	0.9	8	u	x	8	x	x	x
Cc1cc(C)cc(NC(=S)N(C)C)c1	-12	0.4	-5.4	0	5	i	6	5	-10	1.5
Cc1cccc(OCC(=O)Nc2ccccc2N2CCCC2)c1C	28	7.4	6.8	-3	0	i	-1	-35	-51	-8.0
S=c1[nH]nc(Cc2n[nH]c(=S)n2-c2ccccc2)n1-c1ccccc1	-3	-5.9	-5.2	4	-3	i	93*	9	4	0.2
CC(C)CNC(=O)Cn1nc(C(F)(F)F)c2c1CCCC2	-6	-0.5	-1.4	-6	-8	x	-5	3	18	3.2
C[C@H](CO)N1C[C@H](C)[C@@H](CN(C)S(=O)(=O)c2ccc(F)cc2)Oc2c(NC(=O)CCC(F)(F)F)cccc2C1=O	x	-1.0	x	-9	x	i	-1	10	1	0.8
Cc1ccc(CNC(=O)CCSCc2ccc(C)cc2)cc1	6	-0.6	-3.5	-2	-5	x	-1	-5	-37	-8.1
COc1ccc(N2CCN(C(CNC(=O)C3CCCCC3)c3ccco3)CC2)cc1 (stereo not drawn)	-6	5.7	9.8	x	6	i	x	-6	-5	-0.5
CC(OC(=O)c1cccnc1Cl)C(=O)Nc1ccc2c(c1)OCO2 (stereo not drawn)	x	0.5	x	11	x	i	-11	-7	0	3.6
COCc1cc(C)nc(SCC(=O)Oc2ccc(Cl)cc2)c1C#N	-5	-3.2	10	-3	6	i	41	-18	-10	4.8
O=c1c2ccccc2c(C=Nc2ccc(O)cc2)c(O)n1-c1nccs1	-10	x	u	7	16	x	20	x	x	x
O=[N+]([O-])c1ccc(/C=N/N2CCN(Cc3ccccc3)CC2)cc1	11	u	-3.5	-4	2	i	-10	-16*	4.4*	-1.6*
COc1cccc(NC(=O)CNC(=O)c2ccc(C)cc2)c1	-7	-2.5	5.0	-6	-12	i	0	11	10	-0.1
O=C(NCc1cccc(Br)c1)c1cc(-c2ccccc2)nn1CC1CC(c2cccnc2)=NO1 (stereo not drawn)	49	-8.0	4.4	-3	15	i	x	-10	-15	2.8
COCCCNc1nc2nonc2nc1N1CCN(C2CCCC2)CC1	-1	1.5	0.2	-3	-59	i	x	3	6	1.1
COCc1c(C(=O)Nc2ccc3nc(N4CCOCC4)sc3c2)oc2ccccc12	x	4.7	x	16	x	i	x	-2	0	5.5
CCn1c(=O)n(CC)c2cc(S(=O)(=O)N3CCOCC3)ccc21	-7	x	-4.9	-3	-11	x	1	x	x	x

More compounds
SMILES	T cruzi inh	AF4-AF9 inh	RanGTP-Impb inh	Beta cell apopt	Calb FLC	FGF22 binding	ALR inh	Ecoli rRNA inh	Ecoli rRNA inh OD600	Ecoli rRNA inh RFP
COc1cc2c(c(OC)c1OC)-c1ccc(NC(=O)c3ccc(F)cc3)c(=O)cc1[C@@H](NC(C)=O)CC2	17	5.1	-0.8	2	15	i	-6	-1	-11	2.7
COc1ccccc1NC(=O)CSc1nnnn1C1CCCCC1	1	-16	-1.1	-1	-15	i	-9	4	-14	6.7
COc1cc2c(cc1OC)CN(C(=O)c1cccc(S(=O)(=O)N(C)C)c1)CC2	0	-1.5	-0.7	-5	0	i	-7	5	-2	0.0
CCOc1ccccc1C(=O)NC1CCN(Cc2ccccc2)CC1	42	-16	7.5	0	1	i	-10	19	12	2.2
C=CCOc1ccc(Br)cc1/C=C1\NC(=S)N(C(C)=O)C1=O	-2	-0.5	-0.7	5	37	i	x	-32*	-25*	-2.3*
Cc1c(C(=O)NC(C)c2ccc(-n3ccnc3)cc2)cccc1[N+](=O)[O-] (stereo not drawn)	3	-3.5	-0.6	-2	-24	i	-2	8	7	4.8
Cc1c(C(=O)N2CCN(c3ccc(F)cc3)CC2)oc2c1C(=O)CCC2	16	5.9	-3.7	2	0	i	61	-2	-4	-3.7
COc1ccc(C(=O)NCCc2nnc(SCC(=O)Nc3ccc(Br)cc3)n2C)cc1	-3	x	u	-1	11	x	1	x	x	x
CCc1ccccc1OCCCCCNCCO	22	x	-4.1	-5	0	x	-10	x	x	x
CC(=O)C(Cc1ccccc1)NC(=O)COC(=O)CCN1C(=O)C2CC=CCC2C1=O (stereo not drawn)	-12	0.0	-0.8	4	2	i	-1	8	10	1.9
O=S(=O)(NCCc1cn2ccccc2n1)c1ccc2c(c1)CCCC2	4	2.3	0.6	-2	7	i	x	2	12	4.2
Cc1ccc(-n2nc3c(c2NC(=O)C2CC2)CS(=O)(=O)C3)cc1C	2	-1.6	u	-5	-2	i	-1	6	7	-0.5
Cc1cccc(CS(=O)(=O)c2ncc(CO)n2C)c1	1	11	3.7	-4	27	i	-4	7	6	-2.6
O=c1[nH]c(N/N=C\c2ccc3c(c2)OCO3)nc2ccccc12	2	1.9	16*	-1	-9	i	5	5	9	-0.5
Cn1c(SCCc2ccc([N+](=O)[O-])cc2)nccc1=O	-4	5.5	1.8	2	2	i	-13	4	2	-0.3
Cc1ccc(-c2nnc(NC(=O)c3ccc([N+](=O)[O-])o3)o2)c(C)c1	49	-0.9	6.8	-4	85*	i	x	-3	5	-1.7
Cc1[nH]c2ccccc2c1C(=O)C(=O)NCc1ccco1	3	1.5	-1.9	-6	-7	i	-16	2	4	1.5
O=C(CSc1ncccn1)NCc1ccc(F)cc1	-15	x	-4.0	-2	-8	x	4	x	x	x
O=C(Nc1nnc(-c2ccco2)o1)c1ccc([N+](=O)[O-])s1	-5	1.6	4.6	15	-4	x	-16	15	3	-0.3
COc1cccc2sc(N3CCN(C(=O)c4ccc([N+](=O)[O-])o4)CC3)nc12	26	x	u	42	3	x	-24	x	x	x
Cn1ncc2c(Nc3ccc(-c4ccccc4)cc3)ncnc21	-4	x	-1.3	10	u	x	27	x	x	x
O=C(CN1C(=O)c2ccccc2C1=O)N1CCN(S(=O)(=O)c2ccccc2)CC1	-5	0.1	4.3	1	-2	i	-8	15	21	0.3
CC(OC(=O)Cc1ccc(Cl)cc1)C(=O)NCCC1=CCCCC1 (stereo not drawn)	-8	-2.1	5.0	-2	-1	i	x	-20	-18	0.4
CCOC(=O)c1ccc(NC(=O)c2cccnc2)cc1	7	-0.5	1.5	112*	0	i	12	13	10	2.6
COc1ccccc1OCC(=O)N1CCN(c2ccccc2OC)CC1	-6	x	3.1	-4	7	x	30	x	x	x

More compounds.
SMILES	T cruzi inh	AF4-AF9 inh	RanGTP-Impb inh	Beta cell apopt	Calb FLC	FGF22 binding	ALR inh	Ecoli rRNA inh	Ecoli rRNA inh OD600	Ecoli rRNA inh RFP
Cc1c(NC(=O)c2ccc(Cl)c(S(=O)(=O)N3CCCCC3)c2)c(=O)n(-c2ccccc2)n1C	1	4.0	0.6	-2	4	i	-4	0	3	0.0
CC(=O)NC(CC(C)C)C(=O)NC(CO)C(=O)NC(CCC(=O)O)C(=O)NC(C)C(=O)NC(CC(C)C)C(N)=O (stereo not drawn)	u	x	2.2	-2	0	x	0	x	x	x
COC(=O)[C@H](CC(C)C)NC(=O)Cn1cnc2c(SC)nc(N)nc21	x	-1.8	x	-4	x	x	-1	4	9	-0.1
CN(C(=O)c1cccc(C#N)c1)c1nnc(C2CCCO2)s1 (stereo not drawn)	0	x	-1.3	-5	-1	x	-1	x	x	x
COc1ccc(-n2nc(C(C)=O)c(=O)[nH]c2=O)cc1	23	-1.5	3.1	-1	-7	i	-2	14	8	1.3
Cc1cc(/C=C(\C#N)C(=O)NC2CCCCCC2)c(C)n1C	12	x	-47	6	-6	x	8	x	x	x
CCCCOc1ccc(C2(C)NC(=O)N(C)C2=O)cc1 (stereo not drawn)	-1	-1.8	u	-5	14	i	-6	3	3	-0.1
CC(C)CC(=O)N1CCN(S(=O)(=O)c2ccc(F)cc2)CC1	-1	x	-6.9	x	-3	x	1	x	x	x
COCCNC(=O)CN(C(=O)Cn1nnc2ccccc21)c1ccccc1	0	x	-5.1	3	-4	x	-7	x	x	x
CCN(CC(=O)Nc1c(F)cccc1F)C(=O)c1cccnc1Sc1ccccc1	3	-2.3	1.9	-3	-4	i	-24	5	7	5.9
CC(C)CN(C(=O)COC(=O)C12CC3CC(CC(C3)C1)C2)c1c(N)n(Cc2ccccc2)c(=O)[nH]c1=O	6	-3.9	0.3	99*	x	i	-8	15	7	-0.7
O=C(Nc1nn[nH]n1)c1cccc(Oc2ccccc2)c1	2	x	1.8	3	-1	x	-15	x	x	x
O=C(C[C@H]1C/C=C\C[C@@H](Cc2ccc(F)cc2)C(=O)OC[C@@H](Cc2c[nH]c3ccccc23)NC1=O)NCCO	x	-0.8	x	2	x	i	-1	-15	-15	2.3
CCOC(=O)C1CCN(C(=O)CCCCn2c(=O)[nH]c3ccccc3c2=O)CC1	10	x	3.5	2	7	x	-1	x	x	x
C=CCN(CC=C)CCCOc1ccc(C)cc1OC	28	2.5	6.0	-5	-28	i	-3	10	0	-2.1
CCO[C@H]1OC(C(=O)O)=C[C@@H](c2coc3ccccc3c2=O)[C@@H]1CCCO	-16	1.2	-3.1	-5	-7	i	-10	2	10	12
CCOC(=O)c1sc(NC(=O)c2cc(-c3ccccc3C)nc3ccccc23)c(C#N)c1C	4	x	-3.9	39	u	x	0	x	x	x
CC1(C)N=C(SCC(=O)Nc2ccccc2)C(c2ccc(Cl)cc2)=N1	0	x	0.1	-11	9	x	x	x	x	x
Cc1ccc(NS(=O)(=O)c2ccc(-c3ccc(=O)[nH]n3)o2)c(C)c1	2	0.4	2.0	-2	-1	i	-6	3	1	-2.7
CCOc1cc(CO)cc(Br)c1OCC(N)=O	1	0.2	-2.1	-1	3	i	5	5	8	2.3
CCOC(=O)N1CCC(N2CCCC(CO)(Cc3ccccc3C)C2)CC1 (stereo not drawn)	16	-2.7	5.2	-7	-3	i	-2	-1	-2	5.7
O=C(CN1CCCCC1)Nc1ccccc1NC(=O)CN1CCCCC1	-2	x	-0.7	-6	-15	x	-14	x	x	x
Cc1cc(NCCOCCO)n2ncc(-c3ccc(Cl)cc3)c2n1	-53	x	6.5	-13	41	x	98*	x	x	x
